Rango complex inh – inhibitors of Rango-importin beta complex formation. AID 540263. Rango CFP/YFP FRET sensor + importin beta, 45 min. actives 0.031% (n = 340,000). Q14974. Potency, µM (titrated, usually from 92.2 µM), inactives show at the highest dose inhibition of complex formation; active = rising FRET ratio curve, often small or poorly fitted; inconclusive = mostly compound fluorescence or quenching in the first reads; inactive = flat curves in all reads;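 note: potency is the fitted concentration of half-maximal effect; 0% = DMSO wells and 100% = buffer wells lacking importin beta; nearly all actives have a fitted effect of over 15% in size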
Target sequence (Q14974 whole entry, looked up): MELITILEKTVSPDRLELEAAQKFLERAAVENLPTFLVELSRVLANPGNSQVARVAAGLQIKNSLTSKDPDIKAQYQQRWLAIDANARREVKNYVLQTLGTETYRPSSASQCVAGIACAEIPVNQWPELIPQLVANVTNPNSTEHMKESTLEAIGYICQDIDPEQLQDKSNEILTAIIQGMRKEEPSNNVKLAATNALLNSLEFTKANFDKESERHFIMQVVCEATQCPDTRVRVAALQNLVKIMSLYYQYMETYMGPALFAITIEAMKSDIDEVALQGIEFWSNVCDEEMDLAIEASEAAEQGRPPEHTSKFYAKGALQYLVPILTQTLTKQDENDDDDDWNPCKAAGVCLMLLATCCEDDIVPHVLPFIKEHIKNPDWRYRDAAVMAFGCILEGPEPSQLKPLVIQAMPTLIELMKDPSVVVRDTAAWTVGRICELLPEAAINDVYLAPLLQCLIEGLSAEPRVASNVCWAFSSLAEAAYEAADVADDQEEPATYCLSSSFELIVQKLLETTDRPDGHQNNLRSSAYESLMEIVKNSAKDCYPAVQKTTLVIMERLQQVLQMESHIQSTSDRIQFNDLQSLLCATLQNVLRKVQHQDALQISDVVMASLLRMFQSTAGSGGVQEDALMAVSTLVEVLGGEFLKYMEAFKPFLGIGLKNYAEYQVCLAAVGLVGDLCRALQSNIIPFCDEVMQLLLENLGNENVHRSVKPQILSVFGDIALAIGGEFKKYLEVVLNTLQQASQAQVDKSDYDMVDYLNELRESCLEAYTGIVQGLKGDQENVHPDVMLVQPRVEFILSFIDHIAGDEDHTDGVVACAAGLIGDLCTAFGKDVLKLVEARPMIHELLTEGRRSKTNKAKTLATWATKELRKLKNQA
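FRET biosensor Rango (snurportin 1 IBB between N-terminal EYFP and C-terminal Cerulean), 50 nM in PBS/1 mM DTT/0.02% Tween-20/0.1% BSA, preincubated 5 min RT with compound; 0.125 microM importin beta added, 45 min RT, CFP/YFP FRET ratio read.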
miR-21 reporter – raises the signal of a miR-21 reporter; HeLa miR-21 FLuc reporter, luciferase, 48 h; Potency, µM (titrated, usually from 38.3 µM), for inactives: at the top dose reporter change, positive = more light; 340,000 tested, under 10 active; AID 2288; active = well fitted rising curve with a large enough effect; inconclusive = small, poorly fitted or top-dose-only effect; inactive = no such curve, though single readings can be large or run the other way;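 note: % of control where 0% means no effect; miR-21 action dims this reporter so a rising signal means less miR-21 action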
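Luminescence from a firefly luciferase reporter carrying a miR-21 binding site downstream, stably expressed under a CMV promoter in HeLa cells that make miR-21 endogenously, reports miRNA modulation after 48 h compound exposure up to approximately 40uM final.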
Rango dissoc inh – prevents RanGTP from dissociating the Rango-importin beta complex. Potency, µM (highest dose often 46.1 µM), for the others: at the highest dose activity change, negative = inhibition. Biochemical FRET Rango-importin beta, RanGTP-induced dissociation. AID 540253. O95149+P62826. actives 0.071% (n = 340,000); active means falling FRET ratio curve, often poorly fitted, with flat reads before Ran was added; inconclusive means other falling curves, or compound fluorescence or quenching; inactive means flat or rising ratio curve;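 note: potency is the fitted concentration of half-maximal effect; % of control where 0% means no effect; nearly all actives have a fitted effect of over 45% in size; -100% = wells without RanGTP and RCC1; the record marks most hits as doubtful in a second field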
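Recombinant Rango FRET biosensor (EYFP–snurportin 1 IBB–cerulean CFP10) at 0.1 uM premixed with 0.25 uM importin beta in PBS, 1 mM DTT, 0.02% Tween-20, 0.1% BSA. Compound added 5 min; RanGTP-RCC1 (0.6 uM Ran, 2 mM GTP, 0.2 uM RCC1) then triggers release, read at 45 min.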
GLA inh pH 4.5 – blocks human alpha-galactosidase A at pH 4.5; P06280; purified enzyme, 4-MU-alpha-Gal fluorescence, pH 4.5; activity change, negative = inhibition, % at 105 µM; 230,000 tested, under 10 active; AID 1467; inconclusive = small, poorly fitted or top-dose-only inhibition, or a rising curve; inactive = flat fitted curve, though single readings scatter; no compound was filed as active;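 note: 0% = full activity with enzyme and -100% = basal without enzyme; dose as in the result columns while the protocol names 77 µM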
Starred values were filed as active, the others as inactive; ? = inconclusive; · = not tested or not shown; & = joins results of further samples; [ ] = another dose, or the depositor's remark. Not all compounds are listed; rates above refer to the full screens.

The opening 4 compounds as a preview:
Rango complex inh	miR-21 reporter	Rango dissoc inh	GLA inh pH 4.5	Compound
1.0%	0%	4%	5	O=C1C2C3C=CC(C3)C2C(=O)N1c1ccc2c(c1)CCC2 (centres undefined)
1.6%	·	2%	·	CN(CC(=O)Nc1ccc(Cl)c(Cl)c1)C(=O)C1CCC1
-0.8%	-31%	6%	1	c1nc(NC2CCCCCC2)c2[nH]cnc2n1
-2.9%	18%	0%	·	O=C(CSc1nc(N2CCOCC2)nc(N2CCOCC2)n1)Nc1ccc([N+](=O)[O-])cc1

The listing, repeating the preview:
Rango complex inh	miR-21 reporter	Rango dissoc inh	GLA inh pH 4.5	Compound
1.0%	0%	4%	5	O=C1C2C3C=CC(C3)C2C(=O)N1c1ccc2c(c1)CCC2 (centres undefined)
1.6%	·	2%	·	CN(CC(=O)Nc1ccc(Cl)c(Cl)c1)C(=O)C1CCC1
-0.8%	-31%	6%	1	c1nc(NC2CCCCCC2)c2[nH]cnc2n1
-2.9%	18%	0%	·	O=C(CSc1nc(N2CCOCC2)nc(N2CCOCC2)n1)Nc1ccc([N+](=O)[O-])cc1
-1.9%	1%	-6%	·	Cc1ccc(CCNC(=O)CCS(=O)(=O)Cc2ccc(C)cc2)cc1
1.3%	4%	-19%	·	O=C(Nc1cccc(F)c1)C1CCN(C(=O)NCc2ccccc2)CC1
-1.6%	·	?	·	CNC(=O)c1ccc(NC(=O)CC2SC(N3CCCC3)=NC2=O)cc1 (centres undefined)
5.7%	·	-1%	·	O=C(COc1ccc(Br)cc1)NCC1COc2ccccc2O1 (centres undefined)
-4.8%	·	-1%	·	CCN(CC(=O)Nc1ccccc1C(=O)NC1CC1)Cc1cccs1
-0.9%	12%	3%	·	COC(=O)c1cc(C(=O)NC(C)C2CC3CCC2C3)cc([N+](=O)[O-])c1 (centres undefined)

Next part:
Rango complex inh	miR-21 reporter	Rango dissoc inh	GLA inh pH 4.5	Compound
-0.9%	·	7%	·	CC(OC(=O)CCC1CCCCC1)C(=O)Nc1ccc(S(N)(=O)=O)cc1 (centres undefined)
-0.2%	0%	-9%	-2	COC(=O)c1ccc(N=CC2=C(O)CC(c3ccccc3)CC2=O)cc1 (centres undefined)
-0.5%	-3%	-7%	1	S=C(NC1CCCCC1)N1CCN(Cc2ccccc2Cl)CC1
7.7%	-7%	2%	0	Cc1ccc(C(=O)NC(N2CCCC2)C(Cl)(Cl)Cl)cc1 (centres undefined)
-3.5%	0%	8%	-8	O=C(C(Cc1ccccc1)N1C(=O)c2ccccc2C1=O)N1CCc2ccccc21 (centres undefined)
0.7%	?	1%	·	CCc1nnc(NC(=O)c2ccc(S(=O)(=O)N(C)Cc3ccccc3)cc2)o1
2.2%	1%	1%	1	CC(C)c1nnc(NC(=O)C2CCCN2C(=O)Nc2ccccc2F)s1 (centres undefined)
5.7%	-3%&5%	-15%	·	CCc1nc2ccc(C(=O)N3CCN(c4cccc(C)c4C)CC3)cc2nc1CC
-0.2%	·	-3%	·	COc1ccc(CNC(=O)C(=O)NCC2OCCN2S(=O)(=O)c2ccccc2)cc1 (centres undefined)
0.7%	-3%	-20%	8	CCOC(=O)C1CCN(C(=O)COc2ccc(N(C)S(=O)(=O)c3ccc(OCC)cc3)cc2)CC1

Going on with the list:
Rango complex inh	miR-21 reporter	Rango dissoc inh	GLA inh pH 4.5	Compound
3.3%	·	33%	·	COc1ccc(-c2csc(NC(=O)CSc3nnnn3C)n2)c(OC)c1
8.8%	·	15%	·	CSCCC1NC(=O)N(CC(=O)N2CCc3ccccc3C2)C1=O (centres undefined)
?	·	-28%	·	COc1ccc(-c2c(-c3ccc4c(c3)OCO4)c3ccccc3n2C)cc1
0.1%	·	23%	·	CCOC(=O)c1c(NC(=O)COC(=O)Cc2ccccc2[N+](=O)[O-])sc(C(=O)N(C)C)c1C
2.8%	2%	1%	2	Cc1ccc(N2CC(C(=O)Nc3cc(C)on3)CC2=O)cc1 (centres undefined)
1.6%	-3%	2%	-5	O=C1c2ccccc2C(Nc2ccc(Cl)cc2)N1CCN1CCOCC1 (centres undefined)
-3.5%	·	9%	·	COc1ccc(S(=O)(=O)N2CCOC23CCN(S(=O)(=O)c2c(C)cc(C)cc2C)CC3)cc1
1.3%	-1%	15%	6	O=C1C2C(c3ccccc3)C=CC(c3ccccc3)C2C(=O)N1c1ccncc1 (centres undefined)
-0.7%	-2%	-7%	-8	COc1cccc(CN(C(=O)Cn2nnc(-c3ccccc3F)n2)C(C(=O)NC(C)(C)C)c2ccncc2)c1 (centres undefined)
-1.8%	23%	-8%	-10	Cc1nc2ncnn2c(N2CCN(c3cccc(C(F)(F)F)c3)CC2)c1C

More results
Rango complex inh	miR-21 reporter	Rango dissoc inh	GLA inh pH 4.5	Compound
0.1%	0%	-1%	-15	O=c1c(C=NCC2CCCO2)c(-c2ccccc2)[nH]n1-c1ccc([N+](=O)[O-])cc1 (centres undefined)
-1.4%	·	17%	·	COCCN(CC(=O)Nc1cccc(C)c1C)C(=O)c1ccc2c(c1)OCO2
-0.2%	-1%	-9%	·	Cc1ccccc1N1CC(C(=O)Nc2nnc(SCCC3OCCO3)s2)CC1=O (centres undefined)
-4.1%	?	-7%	-4	Cc1ccc(S(=O)(=O)Nc2cccc3ncccc23)s1
-0.8%	-1%	0%	-2	COc1ccc(C(=O)N2CCCC(C(=O)N3CCN(c4ccccc4)CC3)C2)cc1 (centres undefined)
-5.8%	·	1%	·	O=S1(=O)c2c(F)cccc2O[C@@H](COCc2ccccc2)CN1CCc1ccc(F)cc1
-0.4%	·	2%	·	COc1ccc(-c2nnc(SCC(=O)N3CCCC3=O)n2N)cc1OC
-0.1%	·	13%	·	O=C1NCC(=O)N2CCC[C@@H]12
1.0%	30%	-5%	-13	O=C(Nc1nc(-c2ccc3c(c2)OCCO3)cs1)c1ccc(S(=O)(=O)N2CCCCC2)cc1
-1.4%	4%	-19%	2	CC(=O)N(C)Cc1ccc(C(=O)CCl)cc1

Next part.
Rango complex inh	miR-21 reporter	Rango dissoc inh	GLA inh pH 4.5	Compound
-2.6%	0%	10%	-2	CC(C)CC(N)C(=O)OCc1ccc([N+](=O)[O-])cc1 (centres undefined)
-0.2%	-4%	5%	2	O=C(CSc1nc2c(c(=O)n1-c1ccc(F)cc1)SCC2)NCc1ccco1
?	-32%	?	7	N#Cc1c(N)nc2c(c1N)CC(=O)N2c1ccc(Cl)cc1
4.7%	3%	2%	-10	Cc1cnc(NC(=O)CSc2nnc(COc3ccccc3)o2)s1
1.3%	·	6%	·	c1ccc(C2(CN3CCNC[C@@H]3CC3CCCCC3)CC2)cc1
-2.2%	·	-15%	·	O=C(NCC(c1ccccc1)N1CCCC1)C1CCN(C(=O)Nc2ccccc2)CC1 (centres undefined)
-2.4%	-3%	11%	·	COc1ccc(CN2CCNC(=O)C2CC(=O)N(C)CCCN2CCOCC2)cc1C (centres undefined)
4.8%	-1%	17%	-1	Cc1cccc(OC(=O)c2cncc(Br)c2)c1
-2.3%	-31%	-12%	-3	O=C(CSc1nc2ncccc2[nH]1)c1ccc(F)cc1
-4.3%	-39%	-10%	19	CCOC(=O)Nc1nnc(/C=C/c2ccc(OC)cc2)s1

(list continues)
Rango complex inh	miR-21 reporter	Rango dissoc inh	GLA inh pH 4.5	Compound
-1.6%	-18%	-8%	-3	Cc1ccc(/C=N/NC(=O)c2ccc3nc[nH]c3c2)s1
?	-2%	-14%	-4	CC(C)c1cc[n+](-c2nc([O-])sc2C=O)cc1
0.6%	0%	7%	·	CCOC(=O)N1CCN(C(=O)c2c[nH]c3ccc(S(=O)(=O)N(C)c4ccccc4C)cc3c2=O)CC1
2.7%	-1%	8%	·	CC(O)c1nc2ccccc2n1CCCc1ccccc1 (centres undefined)
?	·	2%	·	Cc1ccc(NC(=O)CN2C(=O)NC(Cc3ccccc3)C2=O)cc1Cl (centres undefined)
-0.8%	-1%	1%	-8	O=C(COc1ccc(Cl)cc1Cl)OCC(=O)N1CCCc2ccccc21
-0.3%	·	-7%	·	COC(=O)c1ccc(Cn2cnc3c(Cl)ncnc32)cc1
0.1%	3%	-9%	-3	Cc1nc2c(F)c(F)c(C(F)(F)F)c(F)c2[nH]1
-0.1%	·	-16%	·	O=C(COC(=O)CN1C(=O)C2CCCCC2C1=O)Nc1ccc(F)c(F)c1F (centres undefined)
-0.2%	-2%	-1%	-3	Cc1cc(Nc2cccc(F)c2)n2c(n1)nc1ccccc12

Going on with the list:
Rango complex inh	miR-21 reporter	Rango dissoc inh	GLA inh pH 4.5	Compound
0.1%	-12%	14%	4	NNC(=O)c1ccc(CSc2nc3ccccc3[nH]2)cc1
-2.4%	1%	-11%	-8	CNC(=S)Nc1ccc(C(N)=O)cc1
-0.5%	1%	-11%	2	CCOC(=O)c1c(/N=C/c2cc(C)ccc2O)sc2c1CCC2
-0.1%	-11%	5%	12	CCCc1ncc(C(O)c2ccccc2OC)n1C (centres undefined)
-4.5%	10%	4%	·	COCCCn1c(C23CC4CC(CC(C4)C2)C3)n[nH]c1=S
?	0%	?	6	COc1ccc(-c2cc(=O)oc3cc(OCc4nn[nH]n4)ccc23)cc1
1.2%	·	12%	·	NS(=O)(=O)c1ccc(NC(=O)CNC(=O)c2ccc3c(c2)OCO3)cc1
9.7%	14%	4%	-6	O=C(N/N=C/c1cn(-c2cccs2)nc1-c1ccccc1)c1ccc(O)cc1
-1.8%	·	-5%	·	CCCc1cc(=O)[nH]c(SCC(=O)Nc2cc(S(=O)(=O)N3CCCCC3)ccc2C)n1
-4.0%	-3%	-9%	·	CN(C(=O)CC1C(=O)NCCN1Cc1cccc(F)c1F)C1CCOCC1 (centres undefined)

More compounds:
Rango complex inh	miR-21 reporter	Rango dissoc inh	GLA inh pH 4.5	Compound
0.7%	0%	12%	9	CCCc1nc2ccccc2n1CC(O)COc1ccc(NC(C)=O)cc1 (centres undefined)
1.5%	18%	4%	-4	C/C(=N\NC(=O)c1c(Br)c(C)nn1C)c1ccc(NC(=O)C(C)Oc2ccc(Cl)cc2C)cc1 (centres undefined)
4.5%	7%	-6%	-26	Cc1cc(N)n(-c2nc(-c3cccnc3)nc3ccccc23)n1
-2.2%	-1%	-5%	-15	O=C(COc1ncnc2cc([N+](=O)[O-])ccc12)NC(=O)NC1CCCCC1
-0.1%	-20%	1%	2	CCN(CC)S(=O)(=O)c1csc(C(=O)Nc2ccccn2)c1
-5.1%	-21%	1%	·	O=C(Nc1cccc(Cl)c1Cl)c1ccccc1NC(=O)C1CC=CCC1C(=O)O (centres undefined)
?	-21%	1%	-3	COCc1c(C(=O)Nc2nc(C)cs2)oc2ccccc12
-3.9%	0%	0%	-2[21.1 µM]	COc1ccc(N2C(=O)C3C4C=CC(C4)C3C2=O)c([N+](=O)[O-])c1 (centres undefined)
-0.1%	-53%	-8%	4	CN(C(=O)CSc1nncc2ccccc12)C1CCCCC1
-1.2%	·	10%	·	COc1cccc(CNC(=O)COC(=O)CCS(=O)(=O)c2ccc(C)cc2)c1

The list continues.
Rango complex inh	miR-21 reporter	Rango dissoc inh	GLA inh pH 4.5	Compound
1.5%	-8%	-7%	12	CC1CCC2C(=O)N(c3ccccc3OC(=O)c3ccccc3F)C(=O)C2C1 (centres undefined)
2.4%	·	10%	·	CN(C(=O)c1ccc(NC(=O)Cc2cccc(NC(=O)C3CCN(C(=O)C4CCCC4)CC3)c2)cc1)C1CCCC1
-2.7%	-1%	-5%	4	CC(C(=O)O)N1C(=O)c2ccccc2C1=O (centres undefined)
2.9%	0%	-4%	·	COc1ccc(NC(=O)C2CCN(S(C)(=O)=O)CC2)c(OC)c1
3.7%	29%	19%	8	COc1ccc(-n2c(=O)c3c4c(sc3n3c(=S)[nH]nc23)CCCC4)cc1
-0.2%	·	1%	·	CCOc1ccc(NC(=O)c2ccco2)cc1S(=O)(=O)N1CCCC1
2.7%	-7%	11%	1	CC1(C)NC(=O)N(CC(O)CNC23CC4CC(CC(C4)C2)C3)C1=O (centres undefined)
-0.2%	3%	23%	·	COc1ccc(CCNC(=S)N2CCN(S(=O)(=O)c3ccccc3F)CC2)cc1

Bioassay records (PubChem BioAssay)
